Bioassay records as filed in PubChem BioAssay.
INS promoter inh = inhibitors of insulin promoter-driven GFP, primary screen, imaging, TRM-6 cells (human fetal islet line), eGFP reporter, cell count | reporter expression induced with tamoxifen | inhibition, % at 2 µM | 130,000 tested, 0.9% active | AID 1273, 2008;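 active = inhibition above the mean plus 3 SD, with well images judged a real hit on visual review, cut at about 60% in these data, passing the limit was not always enough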
PKD1 inh = inhibitors of human PKD1 kinase, biochemical, fluorescence polarization | Serine/threonine-protein kinase D1 (Homo sapiens), Q15139 | PKD1 kinase fluorescence polarization assay | inhibition, %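 (about 10 µM by stock and volumes)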 | 200,000 tested, 0.056% active | AID 797, 2007;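 active = inhibition of 50% or more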;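 also: controls were vehicle for no effect and a reference inhibitor for full effect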
Target sequence (Q15139 whole entry, looked up): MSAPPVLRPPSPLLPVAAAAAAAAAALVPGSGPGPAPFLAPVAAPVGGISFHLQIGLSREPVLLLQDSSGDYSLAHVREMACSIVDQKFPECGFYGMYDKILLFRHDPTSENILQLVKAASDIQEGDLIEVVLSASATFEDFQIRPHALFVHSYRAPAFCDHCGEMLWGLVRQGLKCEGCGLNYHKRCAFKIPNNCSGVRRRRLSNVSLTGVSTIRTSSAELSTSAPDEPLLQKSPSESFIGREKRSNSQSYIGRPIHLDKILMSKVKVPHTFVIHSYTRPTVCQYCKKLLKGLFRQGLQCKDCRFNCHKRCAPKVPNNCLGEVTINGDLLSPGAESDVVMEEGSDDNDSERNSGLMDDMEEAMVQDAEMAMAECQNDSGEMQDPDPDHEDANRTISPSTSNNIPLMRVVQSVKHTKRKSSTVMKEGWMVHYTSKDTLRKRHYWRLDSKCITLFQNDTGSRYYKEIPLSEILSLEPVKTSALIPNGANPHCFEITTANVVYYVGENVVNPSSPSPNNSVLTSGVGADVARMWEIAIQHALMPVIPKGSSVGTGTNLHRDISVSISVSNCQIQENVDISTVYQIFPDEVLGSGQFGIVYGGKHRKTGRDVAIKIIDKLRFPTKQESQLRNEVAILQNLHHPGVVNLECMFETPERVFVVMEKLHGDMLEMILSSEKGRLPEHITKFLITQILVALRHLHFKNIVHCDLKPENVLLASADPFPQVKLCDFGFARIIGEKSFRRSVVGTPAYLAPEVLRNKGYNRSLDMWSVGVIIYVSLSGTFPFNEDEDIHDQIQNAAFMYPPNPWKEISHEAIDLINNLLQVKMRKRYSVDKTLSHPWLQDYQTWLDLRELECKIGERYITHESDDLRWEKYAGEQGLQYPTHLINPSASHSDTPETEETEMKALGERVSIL
HSV augment = enhancers of HSV replication in host cells, fold increase, host cell viability; HSV replication augmentation in cells; maximum fold increase; 220,000 tested, 0.005% active; AID 1956, 2009;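 active = peak rise of 1.5-fold or more in the series; tested in PC3 cells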;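 also: first round at 10 µM; read as green reporter fluorescence; hits show the peak of a series up to 25 µM; 1 = signal of infected wells without compound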
RGS16-Gao HTS = modulators of RGS16 binding to Galphao, primary screen, biochemical, human proteins, multiplexed bead flow cytometry. AID 1441, 2008. bead-based flow cytometry RGS16-Galphao binding, fluorescence; actives lie on both sides. binding response (% of control), % at 10 µM. Regulator of G-protein signaling 16 (Homo sapiens) + Guanine nucleotide-binding protein …. 220,000 tested, 0.38% active;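 active = below 25% or above 175%, edge rows of some plates excepted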;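 also: Galphao activated by GDP with aluminum fluoride before binding; 100% = wells without compound and 0% = beads without RGS; some results beyond the cut were filed as inactive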
GALR2 agonist = GALR2 receptor agonists, primary screen, cell-based; 140,000 tested, 0.48% active; Galanin receptor type 2 (Homo sapiens), O43603; activation, %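 (tested at 5 µM)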; GALR2-expressing cells, agonist activation read-out;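 active = above mean plus 3 SD of all compounds, about 5% in these data, not always enough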;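 also: 0% = vehicle buffer wells and 100% = reference agonist at full effect; tested in CHO reporter cells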
INS promoter inh cell count = recorded beside INS promoter inh, whose call it bears; normalized cell count, %; measured here: cell count, toxicity; reference of the scale not given here;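 cells exposed to compound for 48 h; stained nuclei by imaging scaled within each plate; lower means fewer cells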
HSV augment primary fold = also measured in HSV augment; calls as there; fold increase; compound at 10 µM; measured here: primary screen fold increase 10 uM; tested in PC3 cells;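 GFP signal in the first replicate; 1 = infected wells without compound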
* marks the source's active call; other numbers are inactive results; i = inactive; . = no result given.

SMILES | INS promoter inh | INS promoter inh cell count | PKD1 inh | HSV augment | HSV augment primary fold | RGS16-Gao HTS | GALR2 agonist
O=C(c1ccccc1Cl)N1CCNCC1 | 23 | 99 | -6 | . | . | 101 | 0.0
OC1NC(=S)N(c2ccccc2)C1O (stereo not drawn) | . | . | . | i | 0.93 | 98 | .
Cc1cc(C)n2nc(SCCCC(=O)c3ccc(F)cc3)nc2n1 | -55 | 173 | -4 | i | 0.97 | 109 | .
O=C(CCn1cccc1)Nc1nccs1 | -43 | 60 | -3 | i | 1 | 99 | -1.7
COCC(=O)Nc1ccc(S(=O)(=O)NCCc2ccccc2)cc1 | 100* | 5.5* | -5 | i | 0.87 | 110 | -2.4
CCOC(=O)c1c(C)[nH]c(C)c1C(=O)COC(=O)c1nc2nccc(C)n2n1 | 24 | 208 | -4 | i | 0.91 | 107 | .
CNC(=O)c1c[nH]n2c(=O)c(Cc3ccccc3F)c(C)nc12 | . | . | 0 | i | 0.95 | 104 | -2.7
O=C(CN1CCN(S(=O)(=O)c2ccc(F)cc2)CC1)Nc1ccc(Cl)c(C(F)(F)F)c1 | 23 | 106 | 3 | . | . | 99 | -2.5
COc1ccccc1S(=O)(=O)Nc1ccc2cn[nH]c2c1 | 47 | 120 | -3 | i | 0.95 | 107 | -1.7
Cn1c(=O)c2c(nc(SCC(=O)NCc3ccc4c(c3)OCO4)n2Cc2ccccc2)n(C)c1=O | 17 | 67 | -5 | i | 0.94 | 101 | -1.6
COc1ccc(C(=O)CSc2nnc(C3CCCCC3)n2N)c(OC)c1 | -18 | 57 | 3 | i | 0.71 | 98 | -1.5
Cc1ccc(-c2nc(SCC(=O)NCC3CCCO3)c(-c3ccc(Cl)cc3)[nH]2)cc1 (stereo not drawn) | -2 | 91 | -6 | i | 0.75 | 105 | -0.8
O=C(N/N=C/c1c(Nc2cccc(C(F)(F)F)c2)nc2ccccn2c1=O)c1ccccc1[N+](=O)[O-] | 19 | 126 | 5 | i | 0.73 | 90 | -2.0
S=C(NCc1ccc(Cl)cc1Cl)Nc1ccccc1 | -31 | 134 | -8 | i | 0.66 | 100 | -0.4
CN(c1ccccc1)S(=O)(=O)c1cccc(NC(=O)c2cc(=O)c3ccccc3o2)c1 | -26 | 118 | -5 | i | 0.96 | 96 | .
CCOC(=O)CCC(=O)O[C@H]1[C@H](O[C@@H]2[C@@H](C)[C@H](O[C@H]3C[C@@](C)(OC)[C@@H](O)[C@H](C)O3)[C@@H](C)C(=O)O[C@H](CC)[C@@](C)(O)[C@H](O)[C@@H](C)C(=O)[C@H](C)C[C@@]2(C)O)O[C@H](C)C[C@@H]1N(C)C | -41 | 58 | 7 | i | 0.87 | 109 | 0.3
CCc1ccc(N(C(=O)Cc2cccs2)C(C(=O)NC2CCCCC2)c2cn(C)nc2C)cc1 (stereo not drawn) | -9 | 152 | -8 | i | 0.74 | 102 | -1.3
COC(=O)[C@H](CCSC)NC(=O)N1CCN(Cc2ccccc2)CC1 | -8 | 246 | 6 | i | 1.2 | 106 | -1.4
Fc1ccc2c(c1)C(c1ccncc1)=NNC(c1cccnc1)=N2 | . | . | -9 | i | 0.97 | 95 | -2.0
COc1ccc(-n2cnnc2SCCC#N)cc1 | 13 | 86 | -11 | i | 0.97 | 94 | 0.6

Entries of single compounds from above. Order of screens: INS promoter inh	INS promoter inh cell count	PKD1 inh	HSV augment	HSV augment primary fold	RGS16-Gao HTS	GALR2 agonist
Cc1ccc(-c2nc(SCC(=O)NCC3CCCO3)c(-c3ccc(Cl)cc3)[nH]2)cc1 (stereo not drawn) across the screens: -2	91	-6	i	0.75	105	-0.8
CN(c1ccccc1)S(=O)(=O)c1cccc(NC(=O)c2cc(=O)c3ccccc3o2)c1 across the screens: -26	118	-5	i	0.96	96	.
CCOC(=O)CCC(=O)O[C@H]1[C@H](O[C@@H]2[C@@H](C)[C@H](O[C@H]3C[C@@](C)(OC)[C@@H](O)[C@H](C)O3)[C@@H](C)C(=O)O[C@H](CC)[C@@](C)(O)[C@H](O)[C@@H](C)C(=O)[C@H](C)C[C@@]2(C)O)O[C@H](C)C[C@@H]1N(C)C across the screens: -41	58	7	i	0.87	109	0.3
COC(=O)[C@H](CCSC)NC(=O)N1CCN(Cc2ccccc2)CC1 across the screens: -8	246	6	i	1.2	106	-1.4

(continued)
SMILES | INS promoter inh | INS promoter inh cell count | PKD1 inh | HSV augment | HSV augment primary fold | RGS16-Gao HTS | GALR2 agonist
CCc1nnc(NC(=O)CSc2nnc(-c3ccco3)n2CCOC)s1 | . | . | -5 | i | 0.93 | 98 | .
COc1ccc(Oc2cccc(Cl)c2CNC(=O)CSCC(=O)O)cc1 | . | . | . | i | 0.98 | 96 | .
Cc1cc2cc(CN(Cc3ccco3)C(=O)C3CCCCC3)c(=O)[nH]c2cc1C | 23 | 73 | 2 | i | 0.92 | 97 | -2.5
COCCn1c(SCC(=O)/C=C2\N(C)c3ccccc3C2(C)C)nnc1-c1ccncc1 | 40 | 149 | 2 | i | 0.82 | 103 | -0.7
Cc1ccccc1NC(=O)Cc1c(O)c2ccccc2[nH]c1=O | 27 | 113 | 2 | i | 0.93 | 97 | 0.1
CCOc1ccc(S(=O)(=O)Nc2ccc(S(=O)(=O)N3CCCCC3)cc2)cc1 | -16 | 187 | -8 | i | 0.8 | 97 | -1.9
CN(Cc1ccccc1)S(=O)(=O)c1ccc(S(=O)(=O)N(Cc2ccc(F)cc2)C2CCCC2)cc1 | 23 | 120 | -9 | i | 1.1 | 102 | -4.2
CNS(=O)(=O)c1cccc(C(=O)OCC(=O)c2cc3ccccc3o2)c1 | 11 | 40 | -1 | i | 0.95 | 102 | .
CSc1cnc2c(=O)[nH]c(=O)n(C)c2n1 | -120 | 112 | 6 | i | 1.2 | 101 | 0.7
COc1c(N2CCN(C(=S)Nc3ccccc3F)C(C)C2)c(F)cc2c(=O)c(C(=O)O)cn(C3CC3)c12 (stereo not drawn) | . | . | . | i | 1.1 | 100 | .
N#CCCN(Cc1cccnc1)C(=S)NCc1ccco1 | 14 | 111 | -8 | . | . | 77 | .
CCOC(=O)CNC(=O)CSc1ncnc2c1cnn2Cc1ccccc1 | 10 | 156 | -5 | i | 0.77 | 98 | -1.5
CCOC(=O)/C(C)=N/Nc1nc(-c2ccc(NC(C)=O)cc2)cs1 | . | . | . | i | 0.97 | 101 | .
COc1cc2c(cc1OC)CN(C(=O)c1ccc([N+](=O)[O-])o1)CC2 | . | . | . | i | 0.96 | 103 | .
N#Cc1ccc(-c2csc(NC(=O)C3CC3)n2)cc1 | . | . | -9 | i | 0.94 | 98 | -0.9
N#CC(C#N)=Cc1cc2ccccc2nc1N1CCOCC1 | 10 | 113 | 11 | i | 1 | 93 | -0.9
Cc1ccc(NC(=O)C/C(N)=N/O)cc1Cl | . | . | . | i | 1 | 101 | .
CS(=O)(=O)N1CCN(c2ccc(NC(=O)COc3ccccc3)cc2)CC1 | . | . | 8 | i | 0.85 | 102 | .
Nc1c(C(=O)c2ccccc2)oc2ccccc12 | -32 | 118 | 1 | i | 0.91 | 7 | 0.3
CC(=O)N=c1sc(C(C)(C)C)c(C)n1C | 6 | 76 | 4 | i | 0.92 | 101 | -1.7
C=CCSc1nc2ccccc2c(=O)n1Cc1ccccc1 | -33 | 61 | 6 | i | 1 | 102 | .
Cc1cccc(CN(C(=S)Nc2c(C)cccc2C)c2cccnc2)c1 | 27 | 64 | -3 | i | 1 | 101 | .
COc1cc(C2CC(=O)c3cnc(NC(=O)COc4ccccc4)nc3C2)cc(OC)c1OC (stereo not drawn) | . | . | 7 | i | 0.97 | 110 | 0.0
CCN1CCN(C(=O)C2CC(c3ccc(F)cc3)=NO2)CC1 (stereo not drawn) | 57 | 84 | -2 | i | 0.71 | 103 | 1.2
COc1ccc(OC)c(S(=O)(=O)N2CCN(C)CC2)c1 | . | . | -4 | i | 0.86 | 103 | -1.1
CN1CCN(CCC(=O)N/N=C/c2cc([N+](=O)[O-])ccc2OC(F)F)CC1 | 57 | 122 | -11 | i | 0.86 | 110 | .
CCOc1ccc(C(=O)OCC(=O)Nc2cc(C)on2)cc1OCC | 31 | 154 | -5 | i | 0.89 | 99 | -1.9
Cc1ccc(C)c(SCC(=O)Nc2nnc(-c3ccccc3)o2)c1 | 59 | 127 | -6 | . | . | 71 | -3.5
Cc1nnc(SCc2cc(=O)[nH]c(Nc3nc(C)c4cc(C)c(C)cc4n3)n2)s1 | . | . | -2 | i | 0.85 | 108 | .
CC(C)NC(=O)c1ccc2c3n(nc2c1)-c1ccc(Cl)cc1CO3 | . | . | . | i | 0.93 | 103 | .
O=C(Oc1ccc(Br)cc1C(=S)N1CCCC1)c1ccccc1Cl | -37 | 89 | -7 | i | 0.76 | 103 | 0.0
CCC(=O)NC(NCC1CCCO1)C(Cl)(Cl)Cl (stereo not drawn) | -4 | 87 | 3 | i | 1 | 103 | 0.9
CCOC(=O)c1ccc2nc(NC(=O)c3cccs3)sc2c1 | 14 | 72 | -7 | i | 0.88 | 103 | -2.6
O=C(Nc1ccccc1)c1ccc(OC(=O)c2cc3ccccc3o2)cc1 | 18 | 103 | -4 | i | 0.92 | 100 | -3.6
Cn1c(=O)c2cc(S(=O)(=O)NC(C(=O)NCc3cccnc3)c3ccccc3)ccc2n(C)c1=O (stereo not drawn) | . | . | -2 | i | 0.66 | 87 | -2.2
O=S(=O)(NC1CC2CCC1C2)c1ccc(Br)s1 (stereo not drawn) | 27 | 133 | -4 | i | 0.87 | 98 | -1.0
COc1ccc(NC(=S)N/N=C/c2ccc(F)cc2)cc1OC | -27 | 123 | 1 | i | 0.9 | 112 | .
Cc1ccc2c(c1)-c1c(ssc1=S)C(C)(C)N2C(=O)CSc1nncn1C | -35 | 84 | -10 | i | 0.88 | 97 | 0.3
O=C(NCc1ccco1)c1cnn2c1NC(c1ccc(Br)cc1)CC2C(F)(F)F (stereo not drawn) | . | . | 15 | i | 0.94 | 100 | -1.3
CCc1ccc(NC(=O)CC2C(=O)N(c3ccc(C)cc3)C(=O)N2C2CC2)cc1 (stereo not drawn) | . | . | -4 | i | 0.87 | 183 | .

Five compounds out of the list, arranged by number of heavy atoms, lowest first.
SMILES | INS promoter inh | INS promoter inh cell count | PKD1 inh | HSV augment | HSV augment primary fold | RGS16-Gao HTS | GALR2 agonist
O=S(=O)(NC1CC2CCC1C2)c1ccc(Br)s1 (stereo not drawn) | 27 | 133 | -4 | i | 0.87 | 98 | -1.0
CCOC(=O)c1ccc2nc(NC(=O)c3cccs3)sc2c1 | 14 | 72 | -7 | i | 0.88 | 103 | -2.6
COc1ccc(NC(=S)N/N=C/c2ccc(F)cc2)cc1OC | -27 | 123 | 1 | i | 0.9 | 112 | .
Cc1ccc2c(c1)-c1c(ssc1=S)C(C)(C)N2C(=O)CSc1nncn1C | -35 | 84 | -10 | i | 0.88 | 97 | 0.3
Cn1c(=O)c2cc(S(=O)(=O)NC(C(=O)NCc3cccnc3)c3ccccc3)ccc2n(C)c1=O (stereo not drawn) | . | . | -2 | i | 0.66 | 87 | -2.2

The list continues:
SMILES | INS promoter inh | INS promoter inh cell count | PKD1 inh | HSV augment | HSV augment primary fold | RGS16-Gao HTS | GALR2 agonist
O=C(CCN1C(=O)CSC1=O)Nc1ccc(Br)cc1 | 62 | 137 | -2 | i | 0.93 | 111 | -1.6
O=C(O)c1ccc(NS(=O)(=O)/C=C/c2ccccc2)cc1O | . | . | -4 | i | 0.88 | 110 | -1.4
Nc1ccc(S(=O)(=O)c2ccc(Cl)cc2)cc1 | 36 | 55 | -10 | i | 0.66 | 50 | -2.3
COC(=O)c1c(NC(=O)CC2SC(N)=NC2=O)sc2c1CCC(C)C2 (stereo not drawn) | . | . | 4 | i | 0.84 | 166 | 1.6
C1CCC(OCCN2CCN(CCOC3CCCCC3)CC2)CC1 | 10 | 73 | -7 | i | 0.98 | 100 | -0.2
Cc1cc(NC(=O)CCC2CCCC2)no1 | 14 | 145 | -10 | i | 0.94 | 105 | -2.9
O=C(c1cccc2ccccc12)N1CCN(CC2CC=CCC2)CC1 (stereo not drawn) | -14 | 142 | 5 | i | 0.84 | 108 | 0.6
CO/N=C/NC(=O)c1ccc([N+](=O)[O-])c(CS(=O)(=O)c2ccc(Cl)cc2)c1 | -34 | 119 | 8 | i | 0.87 | 93 | -4.0

Not a hit list; any-hit rate near 1.2%.
